From PubChem
Biofilm kill mix – mixtures killing C. albicans biofilm | C. albicans biofilm persisters + clotrimazole, fluorescence viability; primary screen in compound mixtures of four per well | inhibition, % at 7.6 µM | hit rate 0.02% among 120,000 | AID 1242;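 active = inhibition above 30.3% in the primary screen of four-compound pools, then above 30% when the compound was retested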;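 note: compounds exposed to preformed 24 h biofilms for 48 h; the number belongs to the whole pool; some results filed as inactive read as strong as hits; inactives centre near 12; 0% = biofilm with clotrimazole alone and 100% = kill control; retested singly at about 60 µM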
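Probe or stimulus – Clotrimazole 50 µg/mL co-treatment · System – C. albicans biofilms · Schedule – 24 h biofilm formation, then 48 h compound exposure, 37 °C · Evaluation – percent inhibition of biofilm viability · Technique – 2-h Alamar Blue fluorescence, 535/590 nm excitation/emission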
Starred values were filed as active, the others as inactive. These rows are one share of the data, so the mix of outcomes need not match the whole.

SMILES	Biofilm kill mix
O=C(CN1CCN(S(=O)(=O)/C=C/c2ccccc2)CC1)Nc1ccc(N2CCOCC2)cc1	18.8
CC(c1ccc(F)cc1)n1c(-c2cccs2)n[nH]c1=S (centres undefined)	14.3
c1ccc(N2CCCCC2)c(Nc2nc3ccccc3n3cnnc23)c1	25.7
COc1ccc(C(CCO)NC(=O)c2cccs2)cc1OC (centres undefined)	1.6
C[C@@H]1C[C@@H]2OC(=O)[C@]3(C)[C@H]2[C@@H](OC3(C)O)[C@]2(C)C(=O)CC[C@H]12 (some centres undefined)	3.5
CC(CCc1ccccc1)NC(=O)C(=O)Nc1ccccc1 (centres undefined)	25.2
Cc1cc(C)nc(N2CCCC(C(=O)NC(C)C)C2)n1 (centres undefined)	10.2
Cc1c(NS(=O)(=O)c2ccc(NC3CCCC3)c([N+](=O)[O-])c2)c(=O)n(-c2ccccc2)n1C	13.1
Cc1cccc(N/C=C/C(=O)c2cccs2)c1C	15.2
O=C(O)c1ccc(N=Nc2c(O)[nH]c3ccccc23)cc1	3.0
CCn1c(C)c(P(=O)(N2CCOCC2)N2CCOCC2)c2ccccc21	18.0
COc1ccc(/C=N/NC(=O)c2ccc(NC(=O)c3ccccc3Br)cc2)cc1	14.4
O=C(NCCc1nc2ccccc2[nH]1)/C(=C/c1ccc2c(c1)OCO2)NC(=O)c1ccccc1Cl	16.4
Cc1ccc(NC(=O)CSc2nnc(C(F)(F)F)n2C)cc1[N+](=O)[O-]	11.7
Cc1ccccc1Nc1c(-c2cccnc2)nc2ccccn12	22.6
O=C1CN(C(=O)/C=C/c2ccc(Cl)cc2Cl)CCN1	5.5
COc1ccc(C2CCCN2C(=S)Nc2cccc(Cl)c2C)cc1OC (centres undefined)	23.9
NC(=S)N/N=C/c1ccc(-c2ccc([N+](=O)[O-])cc2)o1	-2.8
CC(C)(C)c1ccc(C(=O)NCCN2CCCC2)cc1	27.6
CC(=O)Nc1ccc(NC(=O)COc2ccc(Br)cc2C)cc1	14.9
CSc1ccc(CN2CCN(C(=O)c3ccncc3)CC2)cc1	13.8
COc1ccc(NS(=O)(=O)c2csc(C(=O)Nc3ccccc3)c2)cc1	15.1
CC(C)(C)NCc1cc(Cl)ccc1OCc1ccccc1F	8.0
O=C(CN1C(=O)C2CCCCC2C1=O)Nc1ccc(S(=O)(=O)Nc2ncccn2)cc1 (centres undefined)	29.4

Another view of part of the listing above:
| canonical_smiles | Biofilm kill mix |
| --- | --- |
| Cc1ccccc1Nc1c(-c2cccnc2)nc2ccccn12 | 22.6 |
| O=C1CN(C(=O)/C=C/c2ccc(Cl)cc2Cl)CCN1 | 5.5 |
| COc1ccc(C2CCCN2C(=S)Nc2cccc(Cl)c2C)cc1OC (centres undefined) | 23.9 |
| NC(=S)N/N=C/c1ccc(-c2ccc([N+](=O)[O-])cc2)o1 | -2.8 |

Two compounds drawn at random from those above, as already listed:
SMILES	Biofilm kill mix
COc1ccc(NS(=O)(=O)c2csc(C(=O)Nc3ccccc3)c2)cc1	15.1
Cc1ccccc1Nc1c(-c2cccnc2)nc2ccccn12	22.6

(further entries)
SMILES	Biofilm kill mix
CC1=C(C(=O)OCC2CCCO2)C(c2ccsc2)C2=C(CC(C)(C)CC2=O)N1 (centres undefined)	13.4
CC(C)(C)c1ccc(-c2nnc(N)s2)cc1	5.7
COc1ccccc1-c1cnnc(N/N=C/c2ccc(-c3cccc(Br)c3)o2)n1	14.8
Cn1c(CNC2CCCCC2)nc2ccccc21	14.2
O=C(Cc1cccc2ccccc12)Nc1nnc(-c2cccc([N+](=O)[O-])c2)s1	-1.8
CC(C)NC(=O)N(Cc1ccc(Cl)cc1)Cc1cccs1	-89.0
CC(=O)N1CCC(=NNc2ncc(C(F)(F)F)cc2Cl)CC1	7.4
COc1ccc(CCNC(=O)Cn2c(=O)n(CC3CCCO3)c(=O)c3ccccc32)cc1OC (centres undefined)	12.9
O=C(Oc1ccc(NC2=NS(=O)(=O)c3ccccc32)cc1)c1cccnc1	12.8
COc1nccnc1NS(=O)(=O)c1ccc(NC(=S)NC(=O)c2cccnc2)cc1	12.7
O=C(COc1ccccc1[N+](=O)[O-])N1CCC(Cc2ccccc2)CC1	13.4
CCCSc1cc(Cl)nc(N)n1	14.3

The list goes on (six carried over from the part before).
SMILES	Biofilm kill mix
CC(=O)N1CCC(=NNc2ncc(C(F)(F)F)cc2Cl)CC1	7.4
COc1ccc(CCNC(=O)Cn2c(=O)n(CC3CCCO3)c(=O)c3ccccc32)cc1OC (centres undefined)	12.9
O=C(Oc1ccc(NC2=NS(=O)(=O)c3ccccc32)cc1)c1cccnc1	12.8
COc1nccnc1NS(=O)(=O)c1ccc(NC(=S)NC(=O)c2cccnc2)cc1	12.7
O=C(COc1ccccc1[N+](=O)[O-])N1CCC(Cc2ccccc2)CC1	13.4
CCCSc1cc(Cl)nc(N)n1	14.3
COc1ccc(C(=O)NNC2CC(=O)N(Cc3ccccc3)C2=O)cc1OC (centres undefined)	3.9
COc1ccc(S(=O)(=O)Nc2ccccc2C(=O)Nc2nc(-c3ccc(F)cc3)cs2)cc1OC	10.4
O=C(CCNC(=O)c1ccco1)Nc1ccc(N2CCOCC2)cc1	10.0
CCCCN(C(=O)c1ccc(OC(F)(F)F)cc1)c1c(N)n(CCC)c(=O)[nH]c1=O	6.3
COc1cccc(-c2cc(C(=O)Nc3ccc([N+](=O)[O-])cn3)c3ccccc3n2)c1	19.4
Cc1ccc2cccc(OCC(=O)c3cc(C)n(Cc4ccco4)c3C)c2n1	-1.4
Cc1ccc(C)c(N/N=C2\CCCNC2=O)c1	12.5
O=C(Nc1ccc(S(=O)(=O)Nc2ncccn2)cc1)c1nn(Cc2ccccc2)c(=O)c2ccccc12	-0.5
COc1ccc(-c2nc(CN3CCN(c4ncccn4)CC3)c(C)o2)cc1C	17.1
C/C(=N/O)c1no[n+]([O-])c1/C(C)=N\O	6.9
CCN(CC)S(=O)(=O)c1ccc(/C=C/C(=O)Nc2ccc(F)c(F)c2F)cc1	12.1
O=C1c2ccccc2C(=O)N1CC1=NCCc2ccccc21	7.3
Cc1ccccc1C(=O)Nn1cnc2ccccc2c1=O	-0.2
CCN(CC)CCCN(C(=O)c1ccco1)c1nc(-c2ccc(C)cc2)cs1	22.7
Cc1occc1C(=O)N1CCCC(CCC(=O)NCc2ccc(F)c(F)c2)C1 (centres undefined)	4.1
CCc1ccc(N2C(=O)CC(c3ccc(F)cc3)C3=C2COC3=O)cc1 (centres undefined)	20.5
Cc1ccc2c(c1)sc(=NC(=O)c1cccs1)n2C	6.3
CN(CCc1ccccn1)C(=O)Nc1cc(Cl)cc(Cl)c1	22.4
O=C1CC(c2ccccc2)=NN1c1ccc([N+](=O)[O-])cc1	28.7
O=c1oc2ccccc2cc1-c1cn2ccccc2n1	18.2
Cc1cc(C)cc(NC(=S)NCc2ccc3[nH]c4c(c3c2)CCCC4)c1	5.2
CCCc1cc(-c2nc(-c3ccc(Br)cc3)cs2)ccn1	14.3
CC(C)(C)NC(=O)NC(=O)Cn1ccsc1=N	12.2
CC(=O)COc1ccc(-c2csnn2)cc1	9.4
COc1ccc(C(C)=O)cc1Cn1cnc2c(cnn2C)c1=O	20.3
O=C(Cn1c(=O)sc2ccccc21)Nc1ccc(O)cc1	13.6
CC(C)CSc1oc(-c2ccco2)nc1S(=O)(=O)c1ccccc1	18.3
CC(C)n1c(CN2CCN(Cc3ccccc3)CC2)nc2ccccc21	20.1
CCOC(=O)N1CCC(N2CCCC(C(=O)c3ccc4cc(OC)ccc4c3)C2)CC1 (centres undefined)	-2.7
CC(C)n1nc(C(=O)OCn2nnc3ccccc3c2=O)c2ccccc2c1=O	-5.4
O=C(Cn1nc(C(=O)O)c2ccccc2c1=O)c1cc(F)ccc1F	3.9
COc1ccc(-n2nc(C(=O)NCC(=O)NCC3COc4ccccc4O3)c3ccccc3c2=O)cc1 (centres undefined)	12.8
COc1ccc(-c2noc(CN(C)Cc3ccc(C)o3)n2)cc1	5.6
Cc1cc(NC(=O)c2ccc(N3CCCC3)c([N+](=O)[O-])c2)no1	9.3
CCC(C)Nc1nc2c(c(=O)n(C)c(=O)n2C)n1Cc1ccc(Cl)cc1 (centres undefined)	-4.8
COC(=O)c1sccc1NC(=O)CCC1CCCCC1	12.7
CCOc1ccc(NC(=O)CSc2nc3c([nH]c4ccccc43)c(=O)n2C)cc1	13.7
CCCNC(=S)Nc1ccc(Cl)cc1C	11.1
COc1ccc(CNC(=O)CSc2cc(=O)n(C)c3ccccc23)cc1	10.7
COc1ccc2c(Cn3cnc4cc([N+](=O)[O-])ccc4c3=O)cc(=O)oc2c1	17.6
COCCCN(CC(=O)Nc1ccc(N2CCOCC2)cc1)S(=O)(=O)c1ccc(C)cc1	10.0
CCc1ccc(/C=N/NC(=O)c2cc(-c3cccc([N+](=O)[O-])c3)n[nH]2)cc1	16.4
COc1ccc(-c2nc(N)nc(C(F)(F)F)c2-c2cscn2)c(O)c1	18.3
COC(=O)CCCC1=CC2=CC(=O)C(C)(OC(=O)c3cccs3)C(=O)C2=CN1C1CC1 (centres undefined)	16.3
O=C(Nc1ccc(S(=O)(=O)N2CCOCC2)cc1)c1cccnc1	16.0
COc1cccc(/C=N/NC(=O)C(=O)Nc2ccccc2OC(F)(F)C(F)F)c1	10.4
O=C(N/N=C\c1ccc(-c2cccc(Cl)c2)o1)C(=O)NC1CCCC1	14.8
NC(=O)COC(=O)c1ccc(Cl)c(S(=O)(=O)N2CCN(c3ccc(F)cc3)CC2)c1	7.7
Cc1ccccc1-n1cc(C(=O)c2cc(Cl)ccc2O)cc(C#N)c1=O	17.1
O=C(NN1CCCCC1)c1ccc(COc2ccc(Cl)cc2)cc1	14.2
O=C(/C=C/c1ccc(Cl)cc1Cl)Nc1cccc(S(=O)(=O)NC2=NCCCCC2)c1	10.4
O=C(NCCN1C(=O)S/C(=C\c2ccccc2F)C1=O)C1CCN(S(=O)(=O)c2cccs2)CC1	11.8
CCNC(=O)CCSc1nc2cc(Cl)ccc2o1	16.2
Cc1c(C(=O)N2CC3(CC(c4cccc(NC(=O)CC(c5ccccc5)c5ccccc5)c4)=NO3)C[C@@H]2C(N)=O)cc([N+](=O)[O-])cc1[N+](=O)[O-] (some centres undefined)	8.1
N#Cc1cn(OCc2ccccc2)c(=O)[nH]c1=O	7.6
CSc1cccc(NC(N)=S)c1	14.4
CC(=O)NCC(=O)N1CCCC(C(=O)c2ccc3c4c(cccc24)CC3)C1 (centres undefined)	0.7
O=C(NC(=C(Cl)Cl)S(=O)(=O)c1ccc(Cl)cc1)c1ccccc1	4.7
Cc1ccc(S(=O)(=O)NCCC(=O)Nc2ccc(Cl)c(Cl)c2)cc1C	8.3
CC(C)(C)c1cc(N/C=C\c2nnnn2-c2ccc(Br)cc2)no1	8.1
Next records:
SMILES	Biofilm kill mix
c1ccc2c(c1)SCc1nnc(-c3ccncc3)n1-2	7.3
COc1cccc(C2[C@H](C)C3(CCN2C)OCCO3)c1 (some centres undefined)	8.6
O=C(NCc1ccc2c(c1)OCO2)c1cc([N+](=O)[O-])ccc1N1CCCCC1	2.1
O=C(O)Cc1csc(-c2ccc(F)cc2)n1	9.8
COc1ccc(Cc2[nH]n3c(=O)cc(C(C)C)nc3c2-c2ccccc2)cc1	18.7
CCn1c(C)nc2cc(C(=O)N/N=C(\C)c3ccc(OC)cc3O)ccc21	7.8
O=C(CSc1ccccc1F)NC1CCS(=O)(=O)C1 (centres undefined)	4.9
Cn1c(N)c(C(=O)COC(=O)c2ccc(Cl)c(S(=O)(=O)N3CCCCC3)c2)c(=O)n(C)c1=O	8.9
CC1CN(CCCOc2ccccc2-c2ccccc2)CC(C)O1 (centres undefined)	9.8
CC(/C=N/NC(=O)Cn1cnc2c1c(=O)n(C)c(=O)n2C)=C\c1ccco1	-8.8
COC(=O)c1cn(NC(=O)C2CCCO2)c(=O)c2ccccc12 (centres undefined)	20.1
COc1ccc(C(=O)COC(=O)/C=C/c2ccc(S(=O)(=O)Nc3cccc(S(N)(=O)=O)c3)cc2)cc1	11.6
CCCCCN1C(C)=CC(=C(C#N)C#N)C=C1C	5.7
NS(=O)(=O)c1ccc(NC(=O)COC(=O)/C=C/c2ccc([N+](=O)[O-])cc2)cc1	15.5
C/C(=N/NC(=O)CN1CCN(Cc2ccccc2Cl)CC1)c1ccco1	18.9
C=CCn1c(COc2cccc(C)c2)nnc1SCn1nnc2ccccc2c1=O	8.5
O=C(CNC(=O)c1ccccc1Br)N/N=C/c1ccc(O)cc1	10.8
CC(O)CNCCCOc1cccc(Oc2ccccc2)c1 (centres undefined)	16.1
Cc1ccc2cc(C#N)c(NCCNC(=S)NCCCN3CCOCC3)nc2c1	17.5
O=C(OCC(=O)N1CCN(C(=O)c2ccco2)CC1)c1ccccc1	7.3
CC(C)c1nnc(SCC(=O)N2CCN(C(=O)c3ccco3)CC2)n1N	-1.8
CCc1ccc(-c2csc(NC(=O)C3CC(=O)N(c4ccc5c(c4)OCCO5)C3)n2)cc1 (centres undefined)	8.1
CC12CCC(C(=O)N/N=C/c3ccc(O)cc3O)(OC1=O)C2(C)C (centres undefined)	30.5
CCOc1ccccc1/C=C(/NC(=O)c1ccccc1)C(=O)NCC(=O)O	5.5
Cc1ccc(-c2nnc(Nc3ccc(CC(N)=O)cc3)c3ccccc23)cc1S(=O)(=O)NCC1CCCO1 (centres undefined)	25.1
COc1cccc2cc(C(=O)Nc3ccc(S(=O)(=O)NCC4CCCO4)cc3)c(=O)oc12 (centres undefined)	9.7
COc1ccc(Cl)cc1NC(=O)C(C)NC(c1ccccc1)c1ccccc1 (centres undefined)	13.1
CN(C)S(=O)(=O)c1ccc(Cl)c(NC(=O)COC(=O)c2ccc3c(c2)NC(=O)CS3)c1	21.0
C#CCOCCOCCOCCNc1nc(N2CCN(C(=O)[C@H](CCCCN)n3cc([C@@H](N)C(C)CC)nn3)CC2)nc(N2CCN(C(=O)[C@H](CCCCN)n3cc([C@@H](N)CO)nn3)CC2)n1 (some centres undefined)	7.3
